Anthrax LT inh = anthrax lethal toxin internalization inhibition | 70,000 compounds, 0.67% hits | Cells, anthrax lethal toxin internalization, FRET ratio (460/530) | AID 912 | Potency, µM (top dose mostly 40 µM), for inactives: top-dose activity change, negative = inhibition, usual class: inhibitors; active = well fitted falling ratio curve with the 530 nm signal flat; inconclusive = other ratio curves, or a change in one channel alone; inactive = flat curves in the ratio and both channels; the % refers to the ratio; further: on the % scale 0 is the no-effect control and ±100 the full control effect; nearly all actives have a fitted effect of over 50% in size; tested in ME-180 cells; beta-lactamase reporter
SmPrx2 inh = blocks S. mansoni peroxiredoxin 2 enzymatic activity; Potency, µM; AID 448; 65,000 compounds, 0.07% hits; S. mansoni Prx2 activity coupled to TGR/GSH (TGR is thioredoxin glutathione reductase), NADPH fluorescence loss, qHTS; some inactives read as strong as hits; active means full or partial inhibition curve with a strong effect at the top dose; inconclusive means weaker partial or single-point curve; inactive means no accepted curve; further: series up to 57 µM; many of its hits are not listed in these tables
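Prx2 activity was followed as the loss of NADPH fluorescence (ex 365/em 450 nm), read every 30 sec for 8 min after H2O2 start. The enzyme mix (50 nM Prx2, 25 nM TGR, GSH, NADPH; pH 7.4 phosphate buffer) was incubated with compound for 15 min at room temperature first.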
* = called active by the depositor; u = inconclusive; x = no result given; [ ] = remark or other dose. Potency means the concentration at half of the fitted maximal effect.

smiles	Anthrax LT inh	SmPrx2 inh
CCCS(=O)(=O)c1c(S(=O)(=O)CCC)c2c3ccccc3ccn2c1C(N)=O	10%	x
N#C/C(=C(/O)CN1CCOCC1)c1nc2ccccc2s1	9%	>57
COc1ccc(NC(=O)C2CCCN2c2ccc(OC)c(OC)c2)cc1OC (stereo not given)	-10%	>57
CC(C)OC(=O)CN1C(=O)C(C)(C)Oc2ccc(C(=O)NC3CC3)cc21	8%	>57
O=C(CSc1nc(O)c(Cc2ccccc2F)c(=O)[nH]1)N1CCCCCC1	-7%	>57
COCC(=O)N(Cc1ccc(OC)cc1)Cc1nc2ccccc2c(=O)[nH]1	7%	>57
O=C(CSc1nc(N2CCCCC2)nc(N2CCCCC2)n1)c1ccccc1	-17%	>57
CC(C)NC[C@H](O)COc1cccc2[nH]ccc12	-11%	>57
C=C(C)C(O)/C=C/c1ccc(C)cc1 (stereo not given)	-4%[8 µM]	x
COc1cc2cc(CN(CCO)S(=O)(=O)c3ccccc3Cl)c(=O)[nH]c2cc1OC	-21%	>57
COc1ccc(Oc2ncc3nc(-c4ccc(Cl)cc4)c(=O)n(C4CC4)c3n2)cc1	u	>57
COc1ccc(NC(=O)N(Cc2ccc(C)cc2)Cc2ccccn2)c(OC)c1	2%	>57
CCOC(=O)CSc1nnc(Cn2nnc(-c3ccccc3)n2)n1C	13%	>57
Cc1nnc(SCc2ccc(Cl)cc2)n1CC1CCCO1 (stereo not given)	0%	>57
COc1cc2c(cc1NCc1ccccn1)oc1ccccc12	x	>57
Oc1ccc(CN2CCCCC2)nc1-c1ccccc1	-8%	>57
Cc1nn(-c2ccccn2)c2c1-c1nc(N)ncc1CC2	0%	>57
O=C(Nc1cn(-c2ccccc2)nc1-c1cccs1)c1ccco1	-17%	>57
CN(C)CCCNC(=O)CC(c1ccccc1)c1ccccc1O (stereo not given)	2%	>57
COC(=O)NCc1ccc(Cl)c(Cl)c1	-13%	x
COc1ccc(NC(=O)c2ccccc2NS(C)(=O)=O)cc1OC	-3%	>57
CCC1c2ccc(C)n2CCN1C(=O)Nc1ccc(F)cc1 (stereo not given)	4%	>57
c1ccc2c(c1)[nH]c1c(NCC3CCCO3)ncnc12 (stereo not given)	6%	>57
O=C(CCN1C(=O)C2C3C=CC(C3)C2C1=O)NCCc1ccccc1 (stereo not given)	-10%	>57
CC(C)c1ccc(/C=C2\C=C(c3ccc4ccccc4c3)OC2=O)cc1	-8%[8 µM]	>57
CC(CNC(=O)C1CCCCC1)NC(=O)C1CCCCC1 (stereo not given)	-12%	x
CN1C(=O)C2(C(C#N)=C(N)Oc3n[nH]c(-c4ccc(Cl)cc4)c32)c2ccccc21 (stereo not given)	-29%	>57
COc1ccc(-c2nc3n(n2)C(c2ccccc2Cl)C(C(N)=O)=C(C)N3)cc1 (stereo not given)	-2%	>57
CC(C)COC(=O)n1c(SCC(=O)N(C)C)nc2ccccc21	13%	>57
Cc1nn2c(N3CCN(c4ccccn4)CC3)cc(C(C)C)nc2c1-c1ccccc1	-4%	>57
O=C(CCc1nc(-c2ccccc2)no1)NCC1CCCO1 (stereo not given)	-18%	>57
C[C@@H]1NC(=O)C/C=C\[C@@H](C)[C@@H]2C=C[C@H](O)[C@@H](COC(=O)[C@H](C)NC(=O)C/C=C\[C@@H](C)[C@@H]3C=C[C@H](O)[C@@H](COC1=O)O3)O2	9%[8 µM]	x
CCC[C@@H]1C[C@@]1(CCC)C(NC(=O)c1ccc(-c2ccccc2)cc1)c1cccc(Cl)c1 (stereo not given in full)	-11%	>57
COc1ccc2c(c1)CCc1c(C(=O)NCCc3ccc(OC)c(OC)c3)noc1-2	0%	u
COC(=O)NC(CC(C)=O)c1cccs1 (stereo not given)	-15%[8 µM]	x
Cc1cnc(CNc2ccnc(-c3ccc(C(=O)N(C)C)cc3)n2)cn1	u	>57
CC(C)C[C@@H](CC(=O)N[C@@H](CCCN)CC(=O)N[C@@H]1CCCC[C@H]1C(=O)N[C@H](CC(=O)N[C@@H](CCC(=O)O)CC(=O)O)Cc1ccccc1)NC(=O)[C@@H]1CNCC[C@H]1N	-9%	>57
COc1ccccc1CNc1ccnc(-c2cccnc2)n1	2%	>57
COc1ccc(Cn2nnnc2C(c2cccs2)N2CCOCC2)cc1 (stereo not given)	-8%	>57
CCOC(=O)Cn1nnc(-c2ccc(OCC(C)C)cc2)n1	0%	>57
Nc1nc(SC/C=C\c2ccccc2)c2[nH]cnc2n1	-1%[8 µM]	>57
COc1ccc(C2=Nn3c(nnc3-c3cccnc3)SC2)cc1	6%	>57
C=CCn1c(SCC(=O)O)nnc1-c1ccc(C(C)(C)C)cc1	x	>57
C=CCn1c(NCCO)nc2sc3c(c2c1=O)CCC3	6%	>57
O=C1C2C3C=CC(C3)C2C(=O)N1CCCO (stereo not given)	-1%	>57
CCOC(=O)c1c(C)c(C(=O)NCC2CCCO2)c(C)n1C (stereo not given)	11%	>57
COC(=O)COc1cccc(NC(=O)c2ccccc2)c1	3%	>57
CCOC(=O)c1ccc(N2C(=O)CC(N3CC(C)OC(C)C3)C2=O)cc1 (stereo not given)	3%	>57
Cc1cccc(NC(=O)C2CCCN(C(=O)NC3CCCCC3)C2)c1C (stereo not given)	-8%	>57
COCCn1c(SCc2ccc(C(=O)OC)o2)nc2cc(Cl)ccc2c1=O	-20%	>57
C=CCN1CCN(c2nc3ccccc3nc2C#N)CC1	0%	>57
Fc1cccc(F)c1CN1CCN(Cc2c(F)cccc2F)CC1	-6%	>57
CC12C(=O)N(Cc3ccccc3)C(=O)C1C1C=CC2C1 (stereo not given)	u	>57
CCCCN(C(=O)Cn1nnc2ccccc21)C(C(=O)NCCOC)c1ccc(OC)cc1 (stereo not given)	8%	>57
CC(C)(O)C#Cc1ccc(C(=O)N2CCCC2C(=O)O)s1 (stereo not given)	3%	>57
O=C(Nc1ccccc1)N1CCCCC1c1cccnc1 (stereo not given)	-3%	>57
O=C(CSc1ccc2c(c1)OCCO2)NCCN1C(=O)CSC1=O	-9%	>57
O=C(CCn1nc(-c2ccccc2)c2ccccc2c1=O)N1CCN(c2ccccc2)CC1	u	>57
COc1cccc(NC(=O)c2ccccc2NS(C)(=O)=O)c1	-1%	>57
CC1(C)CC(=O)C2=C(C1)NCN(Cc1ccccc1)C2	-9%	>57

Reprinted at random: 2 compounds from above, in no set order.
smiles	Anthrax LT inh	SmPrx2 inh
CC(C)NC[C@H](O)COc1cccc2[nH]ccc12	-11%	>57
COCCn1c(SCc2ccc(C(=O)OC)o2)nc2cc(Cl)ccc2c1=O	-20%	>57

Given with values under each structure: 2 of the compounds above.
Values in the order: Anthrax LT inh | SmPrx2 inh
- O=C(Nc1ccccc1)N1CCCCC1c1cccnc1 (stereo not given)
→ -3% | >57
- COCCn1c(SCc2ccc(C(=O)OC)o2)nc2cc(Cl)ccc2c1=O
→ -20% | >57

Additional results:
smiles	Anthrax LT inh	SmPrx2 inh
CC(C)[C@@H](CC(=O)N[C@@H]1CCNC[C@H]1C(=O)N[C@H](CC(=O)N[C@@H](CCC(=O)O)CC(=O)O)Cc1ccccc1)NC(=O)C[C@H](Cc1c[nH]c2ccccc12)NC(=O)[C@@H]1CCCC[C@H]1N	-10%	>57
COc1ccc(Cc2nc(-c3ccccc3)no2)cc1	4%	>57
CCOC(=O)Cc1c(C)nc2c(C#N)c(C)nn2c1C	2%	>57
CCOc1cc(NC(=O)C2CCCO2)c(OCC)cc1NC(C)=O (stereo not given)	2%	>57
O=C1C2C3C=CC(C3)C2C(=O)N1CNc1ccccc1 (stereo not given)	-7%	x
COc1cccc2c(=O)c(C/C=C(/C)Cl)c(C)[nH]c12	19%	x
c1coc(CN2CN=C(Nc3nc4ccccc4s3)NC2)c1	x	>57
CC1CC(C)CN(C(=O)COC(=O)c2cc3ccccc3cc2O)C1 (stereo not given)	-19%	>57
CC1(C)S[C@@H]2[C@H](NC(=O)C3(N)CCCCC3)C(=O)N2[C@@H]1C(=O)O	-27%[8 µM]	>57
CC1Oc2ccccc2N(Cc2ccccc2Cl)C1=O (stereo not given)	u	>57
CC1CC(C)CN(C(=O)Cn2c(=O)n(CCCCC(=O)NCc3ccco3)c(=O)c3ccccc32)C1 (stereo not given)	7%	>57
CCOc1ccc(-c2nnn(CC(=O)NCc3ccc(F)cc3)n2)cc1OCC	8%	>57
COc1cc(NC(=O)c2c(F)c(F)c(F)c(F)c2F)c(OC)cc1Cl	u	>57
COc1ccccc1N1CCN(Cc2c(F)cccc2Cl)CC1	u	x
NC(N)=NCCCCCCCCCCN=C(N)N	-4%	>57

Next part, overlapping the part above by 7 compounds.
smiles	Anthrax LT inh	SmPrx2 inh
CC1(C)S[C@@H]2[C@H](NC(=O)C3(N)CCCCC3)C(=O)N2[C@@H]1C(=O)O	-27%[8 µM]	>57
CC1Oc2ccccc2N(Cc2ccccc2Cl)C1=O (stereo not given)	u	>57
CC1CC(C)CN(C(=O)Cn2c(=O)n(CCCCC(=O)NCc3ccco3)c(=O)c3ccccc32)C1 (stereo not given)	7%	>57
CCOc1ccc(-c2nnn(CC(=O)NCc3ccc(F)cc3)n2)cc1OCC	8%	>57
COc1cc(NC(=O)c2c(F)c(F)c(F)c(F)c2F)c(OC)cc1Cl	u	>57
COc1ccccc1N1CCN(Cc2c(F)cccc2Cl)CC1	u	x
NC(N)=NCCCCCCCCCCN=C(N)N	-4%	>57
CN(C)S(=O)(=O)c1ccc(NC(=O)C2COc3ccccc3O2)cc1 (stereo not given)	-8%	>57
CCn1c(CNC(=O)c2ccccc2)nc2ccccc21	2%	>57
CCOc1cccc(NC(=O)CSc2nncn2N)c1	0%	>57
Cc1cccc(N2CCN(S(C)(=O)=O)CC2)c1C	-14%	x
COc1ccc(C)cc1NC(=O)CSc1nnc(-c2ccc(Br)cc2)o1	-4%	>57
COC(=O)c1ccc(C)c(NC(=O)CN(c2cc(OC)ccc2OC)S(C)(=O)=O)c1	-6%	>57
Oc1ccc(-c2nc3ccccn3c2NCc2ccc3c(c2)OCO3)cc1	6%	>57
Nc1cc(C(=O)O)ccc1Nc1ccccc1	-2%	x
COc1ccc(-c2oc(/N=C/N3CCOCC3)c(C#N)c2-c2ccc(OC)cc2)cc1	u	x
COC(=O)c1ccc(C(NC(=O)OCc2ccccc2)/C(F)=C/[C@@H](C)C(=O)NC2CCCCC2)cc1 (stereo not given in full)	0%	x
CCOC(=O)c1cc2c(=O)n3ccccc3nc2n(CCOC)c1=NC(=O)C(C)(C)C	27%	>57
CN(c1ccccc1)C(c1ccc(F)cc1)c1nnnn1C1CCCC1 (stereo not given)	-17%	>57
O=c1c(-c2cccc(F)c2)nc2cncnc2n1-c1ccccc1	u	>57
CC(=O)N1CCC2(CCCN(c3ccncc3)C2)CC1	12%	>57
COc1ccccc1C(=O)Nc1ccc(N2CCN(Cc3ccccc3)CC2)cc1	-23%	>57
O=C(c1cccs1)N1CCN(Cc2ccncc2)CC1	-2%	>57
O=C(COc1ccccc1O)Nc1ccccc1Cl	4%	>57
CCOc1ccccc1N(CC(=O)Nc1ccc2c(c1)OCO2)S(C)(=O)=O	-5%	x
CC1c2[nH]c3ccccc3c2CCN1S(C)(=O)=O (stereo not given)	-5%	>57
CC(=O)NC(Cc1ccccc1)C(=O)NC1CCN(C(=O)NC2CCCCC2)CC1 (stereo not given)	1%	>57
O=C(NCC1CCCO1)c1coc2nc3ccccc3nc12 (stereo not given)	11%	>57
Cc1ccc(NC2c3ncccc3C(=O)N2c2ccccc2C)cc1C (stereo not given)	-3%	>57
Cc1cc(C(=O)OCC(=O)Nc2ccc(F)cc2F)c(C)o1	-12%	>57
CC1(C(=O)NC2CCCCCCC2)CCC(=O)N1CCN1CCOCC1 (stereo not given)	x	>57
COc1ccc(CC(=O)NC2CCN(CC(=O)Nc3ccc4c(c3)OCCO4)CC2)cc1OC	u	>57
O=C1Nc2ccccc2C12OC1CCCCC1O2 (stereo not given)	14%	>57
CCOC(=O)N1CCC(Nc2c(NCCCN3CCN(c4ccc(OC)cc4)CC3)c(=O)c2=O)CC1	-2%	>57
Cc1cccc2cc(C#N)c(SCCN3CCCCC3)nc12	6%	>57
CC(NC(=O)C1C2C=CC(C2)C1C(=O)O)c1ccccc1 (stereo not given)	3%	>57
COc1ccc2cc3cc(C(=O)N4CCN(Cc5ccc6c(c5)OCO6)CC4)oc3nc2c1	-21%	>57
COc1cc(C2CC(=O)N3CN(c4ccccc4C)CSC3=C2C#N)cc(OC)c1OC (stereo not given)	u	>57
CCCCOc1ccccc1C1CC(=O)NC2=C1C(=O)CCC2 (stereo not given)	-3%	>57

Source: PubChem

A portion of the library (hit frequency here may not be typical).
